# High-throughput results (PubChem BioAssay)
# Mtb H37Rv – M. tuberculosis H37Rv growth inhibitors, H37Rv strain (AID 1626); M. tuberculosis H37Rv growth inhibition; higher % means a stronger effect; inhibition, % at 10 µM, or IC50 in µM where a hit was titrated; 220,000 compounds, 0.95% hits;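 active = confirmed in a dose series; inconclusive = inhibition above 80% but not taken into the dose series; inactive = below 80% or under 30% at every dose of the series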;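 note: bacteria incubated seven days before Alamar blue readout; 0% = bacteria only wells and 100% = bacteria with antibiotic wells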
# Mtb betalactam – beta-lactam sensitization of Mtb H37Rv; M. tuberculosis H37Rv growth with meropenem, percent inhibition; hits of this screen are not shown here; inhibition, % at 25 µM; 330,000 compounds, 0.27% hits;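 active = about 74% or more and at least 40 points above the plate without the antibiotic, then above 30% in a dose series; inconclusive = first-round hits that could not be retested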;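 note: growth measured after seven days incubation then overnight dye step; 0% = bacteria only wells and 100% = bacteria with antibiotic; twin plates without the antibiotic show which effects depend on it; some results filed as inactive read as strong as hits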
# YopH inh – YopH (Yersinia) phosphatase inhibition; fluorescence Ex485/Em525; inhibition, %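 (about 10 µM by stock and volumes)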; 140,000 compounds, 0.16% hits;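 active = inhibition of 50% or more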;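 note: controls were vehicle for no effect and minimum signal wells for full effect; inactives centre near -20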
# RecA splice inh – Mtb RecA intein splicing inhibition | P9WHJ3 | cell-free RecA intein splicing, fluorescence | inhibition, %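 (about 9 µM by stock and volumes)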 | 290,000 compounds, 0.75% hits | AID 2221; in the data active = inhibition above about 30%; inconclusive = no clear call, values can overlap the other calls;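 note: 0% = vehicle wells and 100% = reference inhibitor control wells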
# Target sequence (P9WHJ3 whole entry, looked up, canonical isoform): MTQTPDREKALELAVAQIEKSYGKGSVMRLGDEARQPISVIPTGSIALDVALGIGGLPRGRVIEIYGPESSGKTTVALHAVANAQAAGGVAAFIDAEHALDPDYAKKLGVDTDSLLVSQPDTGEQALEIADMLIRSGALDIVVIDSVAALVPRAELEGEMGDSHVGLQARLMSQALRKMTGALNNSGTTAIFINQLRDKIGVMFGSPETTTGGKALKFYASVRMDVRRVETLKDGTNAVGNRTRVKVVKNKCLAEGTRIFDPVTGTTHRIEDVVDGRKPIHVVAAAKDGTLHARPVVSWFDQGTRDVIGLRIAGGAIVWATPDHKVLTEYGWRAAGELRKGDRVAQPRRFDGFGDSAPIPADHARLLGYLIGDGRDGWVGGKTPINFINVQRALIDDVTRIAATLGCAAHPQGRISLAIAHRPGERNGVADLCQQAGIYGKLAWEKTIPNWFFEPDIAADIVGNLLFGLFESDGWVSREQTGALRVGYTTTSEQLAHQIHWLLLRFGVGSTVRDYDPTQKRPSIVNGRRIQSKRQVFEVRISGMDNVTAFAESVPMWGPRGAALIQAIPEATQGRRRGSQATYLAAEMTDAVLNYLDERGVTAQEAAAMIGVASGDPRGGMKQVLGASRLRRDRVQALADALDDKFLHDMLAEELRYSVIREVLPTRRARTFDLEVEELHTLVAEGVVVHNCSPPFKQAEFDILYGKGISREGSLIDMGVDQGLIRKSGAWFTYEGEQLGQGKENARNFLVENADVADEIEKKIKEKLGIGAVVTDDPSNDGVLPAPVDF
# Arbovirus inh – blocks arbovirus infection; arbovirus infection cell-based antiviral screen; inhibition, % at 10 µM; 200,000 compounds, 0.37% hits; AID 1251;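 active = inhibition from about 30%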;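 note: bluetongue infection of BSR cells; cell survival read as ATP light after 72 h; 0% = infected wells without compound and 100% = uninfected wells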
# Arbovirus inh repeat – also measured in Arbovirus inh; calls as there; inhibition, %; measured here: 10K subset replicate screen; many hits read low in the repeat;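 first of two repeat runs on a subset; 0% = infected and 100% = uninfected wells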
# Starred values were filed as active, the others as inactive; ? = inconclusive; nt = no result given.
SMILES,Mtb H37Rv,Mtb betalactam,YopH inh,RecA splice inh,Arbovirus inh,others
CCN1C(=O)NC(c2ccc(Cl)cc2)C2=C1CCCC2=O (stereo not given),nt,-7,nt,3.5,nt,
CN(/N=C\c1ccc(O)c(O)c1)c1nc(-c2ccccc2)cc(-c2ccccc2)n1,5%,10,-31,-4.8,-33,
COc1ccc(OCC2c3cc(OC)c(OC)cc3CCN2C(=O)C(C)C)cc1 (stereo not given),0%,nt,nt,-0.7,13,
Cc1ccc(S(=O)(=O)N(C)CC(=O)OCC(=O)N2CC(=O)Nc3ccccc32)cc1,-7%,-4,nt,0.5,-5,
CC(NC1c2ccccc2-c2ccccc21)c1ccccc1 (stereo not given),nt,3,nt,8.7,nt,
Cc1ccc(NC(=O)c2cc3ccccc3o2)nc1,nt,-1,nt,1.6,nt,
Cc1cccc(-n2c(C)cc(C)c(C#N)c2=O)c1,-3%,0,nt,nt,1,
CCC(=O)c1ccc(N2CCN(C(=O)c3ccc(F)cc3)CC2)c(F)c1,13%,10,nt,-2.2,2,
CSc1ncc2c(=O)[nH]c(-c3ccccc3)nc2n1,nt,-3,nt,-1.7,nt,
Nc1nc(N2CCOCC2)n[nH]1,3%,nt,nt,nt,1,
CCc1ccc(NC(=O)c2ccc3ncsc3c2)cc1,nt,nt,-36,0.3,10,
O=C(c1cc(-c2ccc(O)cc2)on1)N1CCCc2ccccc21,nt,13,-20,4.6,-1,Arbovirus inh repeat=-2
CCN(C(=O)Oc1ccccc1)c1ccc(C(O)(C(=O)OC)C(F)(F)F)cc1 (stereo not given),2%,1,-21,-0.8,0,
COC(=O)c1cc(OC)c(OC)cc1NC(=S)N1CCN(C/C=C/c2ccccc2)CC1,14%,75,-21,-1.3,13,
COC(=O)Cc1ccc(OC(=O)CCS(=O)(=O)c2ccc(Cl)cc2)cc1,nt,3,nt,4.2,nt,
COc1cc(NC(=O)COn2nnc3ccc(S(C)(=O)=O)cc32)cc(OC)c1,9%,-3,nt,2.2,9,
O=C(NCN1CCc2ccccc2C1)c1cnccn1,-6%,-2,-57,1.5,4,Arbovirus inh repeat=1
CCOc1ccc(C2NC(=O)NC(C)=C2C(=O)OC)cc1C (stereo not given),-3%,-3,1,0.5,-6,
CCn1cc(/C=N/NS(=O)(=O)c2ccc(C)cc2)c(C)n1,nt,-5,-33,0.8,0,
CC1(C)CC(=O)C2=C(C1)N=C1SCCC(=O)N1C2c1ccc(C(F)(F)F)cc1 (stereo not given),-1%,-10,3,-2.2,1,
Cc1cnc(C(=O)OCc2ccc(COC(=O)c3cnc(C)cn3)cc2)cn1,1%,11,nt,0.2,7,
Cc1ccccc1C(=O)Nc1ccc(C(=O)N/N=C/c2ccncc2)cc1,-1%,2,nt,-1.3,-3,
CC(C)(C)c1cc(C(=O)N/N=C/c2cc3c(cc2Br)OCO3)n[nH]1,nt,2,nt,6.4,nt,
Cc1[nH]n(-c2ccccc2)c(=O)c1N=Nc1ccc2c(c1)OCCO2,-5%,11,nt,1.9,12,
Cc1ccc(-c2noc(=O)n2CC(=O)Nc2ccc(S(=O)(=O)NC3CC3)cc2)cc1,8%,-2,-9,1.7,3,
Cc1ccc(NC(=O)c2c(C(F)(F)F)nn(C)c2Cl)cc1C,-8%,-7,-42,-0.6,6,
Cc1ccccc1-c1nnc(Cc2ccccc2)o1,7%,-1,-26,4.1,-3,
O=C(CN(C1CCCCC1)S(=O)(=O)c1ccc(F)cc1)NCCCO,-5%,-1,-38,nt,5,Arbovirus inh repeat=0
COC(=O)[C@H](Cc1c[nH]c2ccccc12)NC(=O)NCc1ccc(OC)c(OC)c1,nt,-10,nt,0.6,nt,
O=C(c1coc2ccc(O)cc12)C1CC1,27µM*,98,-26,-3.7,10,
COC(=O)c1sc(NC(=O)CSc2n[nH]c(N)n2)c(C(=O)OC)c1C,-4%,4,nt,-2.7,11,
CCOc1ccc(CCNS(=O)(=O)c2ccc(-c3ccc(=O)[nH]n3)o2)cc1OCC,nt,-3,nt,-2.2,nt,
COc1ccc(C(=O)NCCN2CCCC2)cc1,nt,-5,nt,-3.3,nt,
COc1ccccc1-c1cn[nH]c1-c1ccc(OCc2ccc([N+](=O)[O-])cc2)cc1O,-7%,10,nt,-1.7,nt,
Cn1c(=O)oc2cc(S(=O)(=O)NC3CCCc4ccccc43)ccc21 (stereo not given),0%,1,-49,-0.4,1,Arbovirus inh repeat=-3
CC(=O)Nc1nc2ccc(S(=O)(=O)N3CCCCC3)cc2s1,nt,-13,nt,-12,nt,
CN(C)c1ccc(/C=N/NC(=O)CSc2ccccn2)cc1,-8%,18,nt,-1.4,nt,
CC(=O)C1=C(O)C(=O)N(Cc2cccnc2)C1c1ccc(C(C)C)cc1 (stereo not given),-3%,-2,nt,-0.1,0,
Cc1cc(C)nc(SCc2nnc(SCC(=O)N3CCCc4ccccc43)o2)n1,10%,-6,-33,nt,11,
Cn1c(=O)n(C)c2cc(N3CCCCC3)c(NC(=O)c3cccc(Cl)c3)cc21,nt,-3,nt,-7.3,nt,

# No new results follow: an excerpt of the list.
SMILES,Mtb H37Rv,Mtb betalactam,YopH inh,RecA splice inh,Arbovirus inh,others
Cc1ccccc1-c1nnc(Cc2ccccc2)o1,7%,-1,-26,4.1,-3,
O=C(CN(C1CCCCC1)S(=O)(=O)c1ccc(F)cc1)NCCCO,-5%,-1,-38,nt,5,Arbovirus inh repeat=0
COC(=O)[C@H](Cc1c[nH]c2ccccc12)NC(=O)NCc1ccc(OC)c(OC)c1,nt,-10,nt,0.6,nt,

# Other compounds.
SMILES,Mtb H37Rv,Mtb betalactam,YopH inh,RecA splice inh,Arbovirus inh,others
CCOc1ccc(-n2c(O)c(C=NCCN3CCNCC3)c(=O)[nH]c2=O)cc1,-16%,6,-25,3.1,2,
CCOC(=O)/C(C#N)=C/Nc1cc(OC)ccc1OC,15%,-5,-16,-1.3,-8,
O=C(CN(C(=O)Cn1nnc(-c2ccc(F)cc2)n1)c1ccc(F)c(Cl)c1)NCC1CCCO1 (stereo not given),-3%,-10,nt,-1.0,2,
CN(Cc1ccccc1)c1nnc(N)s1,nt,1,-20,-0.2,-5,Arbovirus inh repeat=1
CCC1CCCCN1P(=O)(c1ccc(C)o1)C(C)(C)C (stereo not given),-2%,5,-20,1.6,5,
Cc1ccccc1-c1nc(CN2CCC(C(=O)NCC3CCCO3)CC2)c(C)o1 (stereo not given),3%,8,-36,3.3,11,
Fc1ccc2[nH]c3c(N4CCN(C5CCCCC5)CC4)ncnc3c2c1,nt,7,-40,0.0,3,
COc1ccc(-c2nnc(-c3cccnc3)o2)cc1OC,-8%,-10,-40,1.1,0,
COc1ccc(S(=O)(=O)N2CCOC2CNC(=O)C(=O)NCc2ccco2)cc1 (stereo not given),-9%,-6,nt,4.9,nt,
Cn1cc(NC(=O)CCl)cn1,-5%,84,nt,-0.7,10,
CCOc1ccc(CCNC(=O)C2CCCN(c3nnc(-n4cccc4)s3)C2)cc1OCC (stereo not given),-5%,-9,-14,-0.4,0,
O=C(CSc1ccc(Br)cc1)Nc1ccccc1N1CCOCC1,nt,6,nt,-1.3,nt,
O=C(NCc1ccco1)c1ccc(CS(=O)Cc2ccc(Cl)cc2)o1 (stereo not given),nt,-4,nt,-1.5,nt,
Cc1csc(NC(=O)CCN2C(=O)c3ccccc3S2(=O)=O)n1,-19%,-5,-22,0.8,-2,
COc1ccc([N+](=O)[O-])cc1NC(=O)Nc1cccc(Cl)c1,5%,-2,-14,-1.1,1,
CN(c1cccnc1)c1ncnc2[nH]ncc12,-4%,-6,nt,-2.3,nt,
CC(=O)Nc1sc(C)c(C)c1CN1CCN(S(=O)(=O)c2ccccc2)CC1,-5%,-9,-44,1.9,-2,Arbovirus inh repeat=4
COC(=O)c1oc2ccc(Br)cc2c1NC(=O)CCN1CCOCC1,2%,-25,-49,3.4,-11,
COc1ccccc1NC(=O)c1ccc(NC(=O)c2cc3c(s2)CCC3)cc1,1%,2,-14,0.4,-4,
O=C(/C=C/c1ccc(Cl)cc1)NCc1cccs1,3%,-1,-9,1.5,-2,

# 2 records drawn at random from the list so far:
SMILES,Mtb H37Rv,Mtb betalactam,YopH inh,RecA splice inh,Arbovirus inh,others
Cn1c(=O)n(C)c2cc(N3CCCCC3)c(NC(=O)c3cccc(Cl)c3)cc21,nt,-3,nt,-7.3,nt,
CCC(=O)c1ccc(N2CCN(C(=O)c3ccc(F)cc3)CC2)c(F)c1,13%,10,nt,-2.2,2,

# Following part.
SMILES,Mtb H37Rv,Mtb betalactam,YopH inh,RecA splice inh,Arbovirus inh,others
Cc1ccc(OCC(=O)Nc2ccc(Cl)cc2)c(-n2nc3ccccc3n2)c1,-5%,10,11,0.1,-21,
COc1cc2c(cc1OC)C(C)N(S(=O)(=O)c1cccs1)CC2 (stereo not given),nt,-12,nt,-1.4,nt,
CC(=O)C(=[N+]=[N-])C(=O)NCc1ccccc1,6%,-1,5,-0.4,-1,
COc1ccccc1C1C(C(C)=O)=C(O)C(=O)N1CCc1ccccc1 (stereo not given),-4%,-3,-9,-2.1,-14,
Cc1ccc(S(=O)(=O)NCC(=O)N(CC2CCCO2)C(C(=O)NCC2CCCO2)C(C)C)cc1 (stereo not given),nt,-4,nt,-1.2,nt,
OCCNc1ccc(Cl)cc1,-10%,-11,-35,-2.3,5,
O=S(=O)(O)c1cnccc1Nc1cccc(C(F)(F)F)c1,nt,-5,nt,-1.3,nt,
O=C(N/N=C/c1c[nH]c2ccccc12)c1cccs1,1%,-13,nt,-1.0,nt,
COc1cc([N+](=O)[O-])ccc1NC(=O)Nc1nc2c(s1)CCCC2,-3%,1,-14,-1.9,-2,
Cc1ccc(-n2nnc3c(=O)n(Cc4cccc(C)c4)cnc32)cc1,8%,5,-46,1.1,-7,Arbovirus inh repeat=-4
Cn1c(SCC(=O)NC(C)(C)C)nnc1-c1ccc(C(C)(C)C)cc1,3%,0,-24,-0.8,10,
CCN1CCN(c2nc(-c3cccnc3)nc3ccccc23)CC1,-4%,6,-10,2.7,3,
O=S1(=O)N=C(SCCO)c2ccccc21,5%,4,-18,-3.1,-2,
CCC(C)(C)NC(=O)C(c1cccn1C)N(Cc1ccccc1)C(=O)Cn1nnc2ccccc21 (stereo not given),-1%,nt,-6,-2.9,-15,
CC(=O)n1c2c(c3ccccc31)OC(N)=C(C#N)C2c1cccc(Cl)c1Cl (stereo not given),22%,0,-25,0.1,-5,
Brc1ccc(OCCCN2CCOCC2)cc1,-4%,-11,-35,-1.2,8,
CCC(=O)N1CCCc2cc(S(=O)(=O)N3CCC(N4CCCCC4)CC3)ccc21,-11%,2,-12,4.8,-5,
O=C(NCc1ccccc1OC(F)(F)F)C1CCC(=O)N(CCc2ccccn2)C1 (stereo not given),nt,-12,nt,4.7,nt,
Cc1ccc(CCC(=O)Nc2ccc(C)c(C)c2)o1,nt,91,nt,0.9,nt,
CC(C)[C@H](NC(=O)N1c2ccccc2NC(=O)[C@@H]1C(C)C)C(=O)N[C@@H](C(=O)O)c1ccccc1,nt,4,nt,-0.8,nt,

# Next section, starting with the last six of the part before.
SMILES,Mtb H37Rv,Mtb betalactam,YopH inh,RecA splice inh,Arbovirus inh,others
CC(=O)n1c2c(c3ccccc31)OC(N)=C(C#N)C2c1cccc(Cl)c1Cl (stereo not given),22%,0,-25,0.1,-5,
Brc1ccc(OCCCN2CCOCC2)cc1,-4%,-11,-35,-1.2,8,
CCC(=O)N1CCCc2cc(S(=O)(=O)N3CCC(N4CCCCC4)CC3)ccc21,-11%,2,-12,4.8,-5,
O=C(NCc1ccccc1OC(F)(F)F)C1CCC(=O)N(CCc2ccccn2)C1 (stereo not given),nt,-12,nt,4.7,nt,
Cc1ccc(CCC(=O)Nc2ccc(C)c(C)c2)o1,nt,91,nt,0.9,nt,
CC(C)[C@H](NC(=O)N1c2ccccc2NC(=O)[C@@H]1C(C)C)C(=O)N[C@@H](C(=O)O)c1ccccc1,nt,4,nt,-0.8,nt,
Cc1nnc(-c2ccccc2)nc1N1CCOCC1,-4%,-2,-23,0.9,-7,
Nc1nnc(-c2ccccc2)c(-c2ccccc2)n1,-2%,?,8,3.3,9,
CCOC(=O)c1c(NC(=O)c2nc3n(n2)C(C(F)F)CC(C)N3)sc2c1CCCC2 (stereo not given),-1%,0,-31,-5.2,3,
CC1CCN(C(=S)Nc2ccc3nc4n(c(=O)c3c2)CCCCC4)CC1,-14%,-7,-35,0.1,17,
COc1ccccc1N(C)S(=O)(=O)c1ccc(C(=O)O)cc1,0%,-6,nt,-2.4,11,
CC/C(=N\NC(=O)Cc1ccc(Br)cc1)c1cccs1,nt,-5,nt,4.8,nt,
Fc1ccc(-c2nnc(SCc3ncc(-c4ccccc4)o3)n2CC2CCCO2)cc1 (stereo not given),-8%,15,-47,0.6,8,
Cc1ccc(C(=O)OCC(=O)Nc2sc3c(c2C#N)CCCC3)cc1NC(=O)c1ccco1,-5%,1,-21,-2.0,7,
Cc1cc(-c2ccccc2)n2ncc(C#N)c2n1,1%,-5,nt,-0.9,-7,Arbovirus inh repeat=3

# Some of the compounds tested; count on the stated rates, not on these rows.
